# PINK1 expr mod: changes PINK1 expression; PINK1 immunofluorescence, high-content cytometry, 24 h; Potency, µM (highest dose often 76.6 µM), without a hit: at the highest dose activation (PINK1 increase), actives largely listed as activators; 410,000 compounds, 0.2% hits; AID 624263; active = well fitted activation curve with a large enough effect; inconclusive = small, poorly fitted or top-dose-only effect; inactive = flat fitted curve, though single readings scatter; cell line not stated here;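 also: potency is read from the fitted curve at half-maximal effect; % of control where 0% means no effect; nearly all actives have a fitted effect of over 65% in size; a mitochondrial uncoupler was the plate control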
#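 Cells are seeded, rested 12 hours, then given compound at five concentrations or DMSO for 24 hours. After fixation, blocking and antibody staining, PINK1 amount and mitochondrial localization are scored; CCCP serves as control.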
# gsp ag: activates gsp, the McCune-Albright syndrome mutation; AID 624287; 340,000 compounds, 0.13% hits; gsp mutant cells, cAMP HTRF, 30 min; control for the full effect not named in the record; Potency, µM (titrated, usually from 76.9 µM), for the others: at the top dose activation (cAMP increase), most hits filed as activators; active = well fitted activation curve with a large enough effect; inconclusive = small, poorly fitted or top-dose-only effect, or another doubt; inactive = no such curve, though single readings can be large or run the other way; cell line not stated here;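 also: phosphodiesterase inhibitor Ro 20-1724 added with compounds to block cAMP breakdown; potency is read from the fitted curve at half-maximal effect; nearly all actives have a fitted effect of over 60% in size; about a fifth of the inactives were tested at one dose only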
#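 Cells in DMEM/10% FBS with G418 were pretreated with compounds in DMSO plus […] (300 uM stock) for 30 min at 37C. cAMP was measured by HTRF (cAMP-d2 plus anti-cAMP antibody-K) after 30 min at room temperature.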
# Menin MLL FP FL: menin-MLL binding inhibition, fluorescein peptide; Fluorescence polarization, fluorescein-MLL peptide displacement from menin; FP activity change, % at 61.4 µM; 290,000 tested, under 10 active; AID 1766; inconclusive = falling polarisation curve, or a change in total fluorescence; inactive = total fluorescence flat and polarisation flat or rising; no compound was filed as active; the % refers to the polarisation; negative = inhibition;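 also: % of control where 0% means no effect; inhibitors lower the polarisation; unlabelled MLL peptide was the positive control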
# ClpP mod: qHTS Assay for Activators of ClpP; purified B. subtilis ClpP, FRET peptide cleavage, 20 min; Potency, µM (highest dose often 57.5 µM), without a hit: at the top dose activity change, negative = active; 340,000 compounds, 1.9% hits; active = well fitted falling curve with a large enough effect; inconclusive = small, poorly fitted or top-dose-only effect; inactive = no such curve, though single readings can be large or run the other way; also: potency is read from the fitted curve at half-maximal effect; the source files actives as falling curves though it sought activators and does not explain the sign; nearly all actives have a fitted effect of over 65% in size; many hits overshoot -100%
# Target sequence (P80244 whole entry, looked up): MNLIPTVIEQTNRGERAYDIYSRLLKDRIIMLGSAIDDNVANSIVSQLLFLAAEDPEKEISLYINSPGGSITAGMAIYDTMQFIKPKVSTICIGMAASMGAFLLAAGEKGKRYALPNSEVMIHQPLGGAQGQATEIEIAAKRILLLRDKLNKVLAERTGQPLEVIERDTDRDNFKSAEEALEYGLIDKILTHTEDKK
#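 Purified B. subtilis ClpP, 10 microg/mL final in Tris/HCl pH8 with KCl, BSA, glycerol and Tween-20, cleaved an Abz/nitrotyrosine-quenched decapeptide. Fluorescence (ex 320, em 430) was read at 0 and 20 min at room temperature. Delta was normalized to 5.8 microM ADEP and DMSO/no-enzyme controls.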
# Sfp inh: inhibitors of Bacillus subtilis Sfp phosphopantetheinyl transferase; Q9F4F7; Biochemical Sfp PPTase activity, qHTS; Potency, µM, for inactives: max response, negative = inhibition, hits mostly inhibitors; 310,000 compounds, 3.5% hits; active = well fitted inhibition curve with a large enough effect; inconclusive = small, poorly fitted or top-dose-only effect, or another doubt; inactive = no such curve, though single readings can be large or run the other way;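 also: the enzyme is Sfp with the accession as filed and its product quenches rhodamine fluorescence; potency is read from the fitted curve at half-maximal effect; 0% = enzyme reaction without inhibitor and -100% = no enzyme wells; top concentration of the series not given in the record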
#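 Step 1, compound plus 15 nM Sfp-PPTase, 15 min, room temperature. Step 2, add rhodamine-CoA (5 uM) and BHQ-2-YbbR (12.5 uM). Step 3, read 525/598 nm fluorescence at 0 and 30 min.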
# gsp antag: antagonists of gsp mutant (McCune-Albright syndrome); gsp-mutant cells, cAMP HTRF, 30 min; control for the full effect not named in the record; Potency, µM (series often up to 76.9 µM), for the others: at the highest dose activity change, negative = inhibition, most hits filed as inhibitors; 340,000 compounds, 0.4% hits; AID 624288; active = falling curve of any shape with a large fitted effect; inconclusive = falling curve, mostly with a smaller effect; inactive = flat or rising curve; cell line not stated here;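 also: intracellular cAMP measured with PDE inhibitor Ro 20-1724 present during compound exposure; potency is read from the fitted curve at half-maximal effect; % is scaled to controls: 0 for no effect and ±100 for the full control effect; nearly all actives have a fitted effect of over 65% in size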
#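 G418-selected cells were plated in DMEM/10% FBS for 16-24 h at 37C, then treated with compounds plus the PDE inhibitor […] (300 uM solution added) for 30 min at 37C. Intracellular cAMP was measured by HTRF after 30 min lysis at room temperature.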
# D2 agonist: agonists of human D2 dopamine receptor (beta-arrestin); P14416; DiscoveRx PathHunter D2 beta-arrestin, luminescence, 90 min; 100% = 57 uM dopamine signal; activation, % (test concentration not listed); 360,000 compounds, 0.084% hits; AID 624465; in the data active = activation above about 40%; inconclusive = about 15% to 40%; inactive = below about 15%; also: compound concentration not given in the record; the text of the record calls up to 30% inactive
# Target sequence (P14416 whole entry, looked up): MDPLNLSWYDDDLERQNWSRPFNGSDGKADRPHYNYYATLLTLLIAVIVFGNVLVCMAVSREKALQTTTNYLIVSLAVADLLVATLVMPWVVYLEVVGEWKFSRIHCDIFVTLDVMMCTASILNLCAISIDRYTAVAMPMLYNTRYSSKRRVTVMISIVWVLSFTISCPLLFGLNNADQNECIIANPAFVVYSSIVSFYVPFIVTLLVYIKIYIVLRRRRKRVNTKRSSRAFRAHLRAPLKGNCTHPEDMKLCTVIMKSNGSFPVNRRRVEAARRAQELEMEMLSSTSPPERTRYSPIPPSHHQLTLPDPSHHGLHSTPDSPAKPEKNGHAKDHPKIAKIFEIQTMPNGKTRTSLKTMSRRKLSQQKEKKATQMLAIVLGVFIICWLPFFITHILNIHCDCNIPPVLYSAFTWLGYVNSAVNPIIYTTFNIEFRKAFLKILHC
#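 DiscoveRx PathHunter D2 beta-arrestin cells (2,100/well) attached overnight, then compound-stimulated 90 min at 37 C in HBSS/10 mM HEPES/0.1% Tween-20 buffer; beta-galactosidase complementation read by luminescence after 1 h at ambient temperature. Dopamine 57 uM final (EC100) as control.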
# * = called active by the depositor; ? = inconclusive; . = no result given; & = joins results of further samples; [ ] = remark or other dose.
SMILES,PINK1 expr mod,gsp ag,Menin MLL FP FL,ClpP mod,Sfp inh,gsp antag,D2 agonist
ON=C1C2CC=C(c3ccccc3)C1CCC2 (stereo unspecified),0.6%,-8.2%,.,-2.0%,.,0.7%,0.2
CCOC(=O)C1CCN(S(=O)(=O)c2cc3c4c(c2)C(C)C(=O)N4CCC3)CC1 (stereo unspecified),0.1%&-0.5%,3.8%,.,-1.0%&-1.2%,11.4%,6.0%,-1.8
COc1ccc(C(=O)O)cc1S(=O)(=O)NCCc1ccccn1,2.9%,6.9%[15.4 µM],9.7,.,-12.0%,9.0%,-18.3
Cc1ccc(NC(=O)CSc2nc(=O)n(CCN(C)C)c3c2CCCC3)cc1Cl,-2.5%,-4.0%,.,?,.,3.6%,1.1
CCCc1nc(-c2cc3cc(C)ccc3[nH]c2=O)no1,-0.1%,?,0.0,3.7%,-1.3%,7.6%,3.3
CN=C(NC1CCCCC1)c1ccc(Cl)cc1,1.2%,-23.1%,-1.7,1.0%,-7.0%,20.9%,-3.5
Cc1ccc(/C(O)=C2/C(=O)C(=O)N(Cc3ccco3)C2c2cccs2)cc1 (stereo unspecified),3.6%[38.3 µM],?,5.3,-0.2%,-19.2%,0.1%,-2.2
COc1ccc(CCNC(=O)Cn2c([N+](=O)[O-])cnc2C)cc1OC,0.2%,-7.2%[15.4 µM],0.2,.,12.8%,5.9%,-1.6
OCCN=Cc1c(O)[nH]c2ccccc12,0.2%,-12.0%,1.6,0.3%,17.1%,-13.0%,-1.0
CN(C)CCCNc1cc(C(C)(C)C)nc2c(-c3ccccc3)cnn12,-2.0%,?,0.4,.,50.1µM*,0.8%,-8.1
Cc1ccccc1OC(C)C(=O)NCCCN1CCOCC1 (stereo unspecified),1.8%,?,.,-1.0%,13.7%,12.3%,1.8
Cc1cc(S(=O)(=O)N2CCCCC2)ccc1OCC(=O)N1CCOCC1,-0.5%,0.5%,-0.9,?,-7.9%,10.7%,-1.3
COc1ccc(N(CC(=O)N2CCN(C)CC2)S(=O)(=O)c2cc(C)ccc2OC)cc1Cl,0.4%,-1.3%,4.7,-5.8%,6.8%,-2.5%,-2.4
O=C(Nc1ccccc1-c1nc2ccccc2s1)c1ccco1,3.3%,25.1µM*,-2.4,-22.0%,-14.2%,23.8%,-6.5
COc1ccc(Cl)cc1NC(=O)CCc1nc(-c2ccccc2F)no1,0.6%&0.8%,7.1%[15.4 µM],5.8,-1.7%,5.3%,-1.8%,-1.7
C=CCn1c(SCC(=O)Nc2c(C)nn(Cc3ccccc3)c2C)nnc1C(O)c1ccccc1 (stereo unspecified),-0.6%[38.3 µM],13.7%,3.9,-1.7%,-3.0%,1.6%,0.8
COc1ccc(Cc2nnc(NC(C)=O)s2)cc1,0.3%,3.1%[15.4 µM],0.3,.,0.2%,7.0%,-1.2
CCCCOc1ccc(C(=O)Nc2ccc(SC(F)F)cc2)cc1OC,2.5%,-28.5%,5.9,5.6%,-3.8%,9.0%,-4.0
COc1cc(OC)cc(C(=O)NNC(=O)CCNC(=O)c2ccc(Br)cc2)c1,1.2%,-19.2%,.,-5.1%,.,-6.4%,-0.9
O=C(Nc1nncs1)c1cc(S(=O)(=O)N2CCCCC2)ccc1Cl,1.5%,-7.4%[15.4 µM],3.1,3.0%,12.4%,-6.7%,-5.5
CCn1c(-c2ccco2)n[nH]c1=S,-1.6%,-4.7%,-0.8,?,-12.7%,19.7%,-0.1
CC(C)N(Cc1nc(COc2ccccc2)no1)Cc1nccn1C,-0.2%,27.4%,-2.7,-2.8%,4.8%,-6.3%,-6.8
CN(C)CCCNC(=S)N(Cc1cccs1)Cc1cc2cc3c(cc2[nH]c1=O)OCCO3,-1.6%,?,6.4,.,-13.9%,1.6%,-3.7
CCc1ccc(CN2C(=O)c3ccccc3C2C(=O)NC(C)CC)cc1 (stereo unspecified),2.7%,3.9%,-0.6,.,1.7%,2.0%,7.9
Cc1ccc(S(=O)(=O)C2(C(=O)Nc3ccc4c(c3)OCO4)CC2)cc1,-0.1%,-32.3%[inhibitor],5.0,1.3%,26.1%,0.2%,-6.9
COCCNC(=S)NC12CC3CC(CC(C3)C1)C2,0.8%,-44.0%[inhibitor],-1.4,0.0%,16.0%,-16.7%,-7.2
O=C(NC1CCCCC1)C(c1cccnc1)N(C(=O)CCl)c1ccc(F)cc1 (stereo unspecified),2.5%,6.9%[15.4 µM],0.7,0.9%,14.1%,-4.3%,3.1
O=C(Oc1ccc(/C=N/O)cc1)c1ccccc1,-2.3%,-0.7%,5.3,-3.0%,-1.1%,-0.3%,-0.3
CS(=O)(=O)N1CCC2(CC1)CN(c1cccc(-c3ccccc3)c1)C2,-0.2%,.,5.3,.,3.0%,.,.
CC1=CC(=O)C(C(C)=Nc2ccccc2Cl)C(=O)O1 (stereo unspecified),-0.9%,2.6%[15.4 µM],1.2,.,19.1%,-5.4%,4.0
CC(C)CN(C(=O)c1nn(C)c(=O)c2ccccc12)c1nc2ccccc2s1,0.0%,-41.1%[inhibitor],4.4,-3.6%,6.0%,4.8%,-2.7
O=C(Nc1cccc(O)c1)c1cc2nc(-c3ccccc3)cc(-c3ccccc3)n2n1,?,-14.2%,6.7,19.2%,-1.0%,?,-2.3
COc1cccc(CNc2cccc(C(F)(F)F)c2)c1O,12.0%,-33.1%[inhibitor],-1.6,0.6%,6.7%,-8.3%,0.2
c1ccc(C(c2ccccc2)c2nc(-c3cccnc3)no2)cc1,8.8%[38.3 µM],-10.3%,0.0,0.4%,-11.5%,-17.7%,-5.1
COc1ccc(S(=O)(=O)Nc2cccc3ccc(O)cc23)cc1,3.2%,8.0%[15.4 µM],.,-0.1%,.,8.2%,0.2
CS(=O)(=O)c1cnc(-c2ccccc2)nc1-c1ccc(Cl)c(Cl)c1,1.2%,?,0.8,.,12.5%,9.2%,2.5
COc1cnc(-c2ccccc2)nc1Oc1ccccc1C,16.2%,2.2%,3.1,1.0%,-1.8%,-5.2%,-1.6
CC(C)(C)C#CCn1c(/C=[N+](\[O-])C2CCCCC2)nc2ccccc21,0.4%,-39.5%[inhibitor],-2.1,-14.0%,7.2%,-8.2%,-3.9
CC(C)c1ccccc1NC(=O)CSc1n[nH]c(=O)n1C1CC1,3.3%,14.8%,.,1.0%,.,7.8%,0.9
O=C(NCCn1cccn1)c1ccc(OC2CCN(CCc3ccccc3)CC2)cc1,?,10.2%,-1.1,.,14.8%,5.4%,-0.8
Cc1ccc2c(c1)c1c(n2C)C(=O)CCC1,-4.0%,13.5%,1.0,-26.7%,-14.6%,4.6%,-2.4
CC1(C)Cc2c(sc(NC(=O)C(=O)N3CCOCC3)c2C(N)=O)CO1,1.5%,-3.6%,.,2.4%,-13.1%,8.0%,-4.4
CCO[C@@H]1OC(C(=O)N2CCOCC2)=C[C@H](c2coc3ccccc3c2=O)[C@H]1CCCO,-1.2%,.,3.0,-1.7%,8.7%,6.8%,-0.1
Cc1ccccc1N1CCN(S(=O)(=O)c2nnc(NC(=O)c3ccc(F)cc3)s2)CC1,2.5%,-17.3%,.,-1.5%,8.9%,5.2%,1.6
Fc1cccc(Cc2noc(CN3CCN(c4cnccn4)CC3)n2)c1,0.2%,22.2%,6.0,-8.7%,15.0%,7.6%,-0.9
O=C(CCCn1c(=S)[nH]c2ccc(Br)cc2c1=O)N1CCN(c2ccccn2)CC1,7.6%[38.3 µM],1.5%,2.6,-3.4%,1.8%,?,-1.4
O=C(CCc1ccccc1)OCC(=O)c1cccc([N+](=O)[O-])c1,1.1%,3.4%[15.4 µM],-0.2,-1.6%,4.3%,7.9%,-12.6
O=C(O)CCc1nnc(SCC(=O)Nc2cccc(C(F)(F)F)c2)[nH]c1=O,-0.1%,-0.4%[15.4 µM],-2.8,.,7.0%,9.3%,1.9
CCn1c(=O)n(CC)c2cc(N3CCCC3)c(NC(=O)c3ccc(OC)c(Br)c3)cc21,1.5%,6.2%,0.9,-5.8%,?,?,-1.6
CCOCCCNCc1ccc(OCc2ccccc2Cl)cc1,-1.2%,19.9%,.,0.7%,10.0%,6.3%,7.1
CCOc1ccc(NS(=O)(=O)c2cc(C(=O)N3CCN(c4ccccc4O)CC3)ccc2Cl)cc1,-0.7%,-1.5%,.,14.5%,.,-6.8%,-1.3
OC(CSc1ccc(F)cc1)CN1CCN(c2ccccc2)CC1 (stereo unspecified),2.2%,37.0%,3.2,.,-19.2%,-5.9%,?
Cc1ccc(S(=O)(=O)N2CCN(S(=O)(=O)N3CCOCC3)CC2)c(C)c1,-3.1%[38.3 µM],-74.4%[inhibitor],0.0,-2.3%,3.1%,2.8%,-1.8
COc1ccc(S(=O)(=O)N2CCCC2C(=O)NCc2cccs2)cc1 (stereo unspecified),-5.4%,12.7%,9.2,2.0%,4.4%,-0.2%,-3.3
Cc1cc(OCC(=O)N2CCN(c3ccccn3)CC2)c(C)cc1Br,2.0%,-17.8%,.,35.5µM*,4.5%,-5.2%,0.5
Cn1c(-c2cc3c(C(F)(F)F)nn(C)c3s2)n[nH]c1=S,-0.4%,-21.6%,8.4,?,?,-5.9%,-0.2
Clc1cccc(-c2nc(NCC3CCCO3)c3ccccc3n2)c1 (stereo unspecified),5.2%,-5.5%[15.4 µM],4.6,1.0%,13.2%,-17.6%,-4.2
C#CCOCCOCCOCCNc1nc(N2CCN(C(=O)[C@H]([C@@H](C)CC)n3cc(CCCN=C(N)N)nn3)CC2)nc(N2CCN(C(=O)[C@H](CCCCN)n3cc(CC(C)O)nn3)CC2)n1 (stereo partly specified),1.5%,.,.,2.5%,.,10.6%,-2.2
CCCCOC(=O)CCc1n[nH]c(=O)[nH]c1=O,-0.2%,6.7%,3.0,-1.0%,20.2%,1.6%,0.5
O=C(CNC(=S)N(CCCN1CCOCC1)Cc1cccs1)NC1CCCCC1,0.4%,?,-7.0,2.2%,6.1%,8.3%,-5.1
CCc1nc2ccccc2c2nc3ccccc3n12,0.4%,?,3.5,-21.4%,7.6%,7.4%,-0.6
O=[N+]([O-])c1ccc(OCCOc2ccccc2/C=N/n2cnnc2)cc1,1.6%,17.5%,0.9,-2.2%,-15.4%,-7.2%,-2.3
CC(C)Cn1c(SCC(N)=O)nnc1-c1cccc(S(=O)(=O)N2CCOCC2)c1,-0.9%,2.9%,.,-0.9%,.,-11.4%,-1.3

# Screening results as filed in PubChem BioAssay.

# An unsorted share of the library; about 5.1% have a hit in one of these screens.
